# Compound activity (PubChem)
# Autofluor counter – flagged as autofluorescent in microsphere protease counterscreen; compound autofluorescence counterscreen, microsphere flow cytometry; hits give high values; fluorescence intensity (no concentration beside the values); actives 3.1% (n = 360,000); AID 624483;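 active = at least 3 SD above the mean of all compounds, about 16000 in these data; inconclusive = too few beads counted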;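 note: 100 nL of 1 mM stock went into each well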
# Sa ugtP lethal – kills S. aureus RN4220 lacking UgtP | actives 0.54% (n = 330,000) | growth inhibition, % (test concentration not listed) | AID 1259309 | S. aureus RN4220 ugtP deletion, OD600 growth, 16 h; some inactives read as strong as hits;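 active = z-score under -3 and OD600 up to 0.15 on both plates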;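 note: plate controls were untreated wells for no effect and antibiotic for full effect; wells of about 80 µL received 100 nL stock; the first replicate is given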
# BJeLR viability – kills HRASV12-expressing BJeLR cells | BJeLR (HRASV12) viability, CellTiter-Glo ATP luminescence, 48 h; reference of the scale not given here | AID 1554 | actives 0.17% (n = 300,000) | inhibition, % (test concentration not listed);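 active = replicate mean above 50%; inconclusive = above 50% but judged a plate artefact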;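 note: 50 nL library stock added to about 25 µL; numbers are from one replicate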
# Mtb hypoxia rep – inhibitors of hypoxia-regulated fluorescent reporter in Mycobacterium tuberculosis. M. tuberculosis hypoxia-regulated fluorescent reporter, fluorescence. AID 1159583. fluorescence inhibition, % (concentration not given with the values). actives 0.1% (n = 300,000);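 active = 35 to 45% if threefold the growth effect, above 45% if 1.5-fold the growth effect; inactive = the rest, general growth blockers included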;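 note: wells of about 50 µL received 100 nL stock; 0% = vehicle wells and 100% = reference inhibitor wells; whole bacteria with a GFP reporter of the hypoxia response; strong numbers were not always called active; many hits fall short of the cut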
# Sa RN4220 lethal – S. aureus RN4220 growth inhibition | OD600, 16 h | inhibition, % (no concentration beside the values) | actives 0.33% (n = 330,000) | AID 1259311;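 active = z-score of -3 or lower and OD600 up to 0.18 on both plates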;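 note: plate controls were untreated cells for no effect and reference antibiotic for full effect; stock transfer was 100 nL into about 80 µL; one replicate is shown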
# PrP 5UTR inh – suppresses PrP 5' UTR mRNA reporter expression; cell-based PrP 5' UTR mRNA reporter, plate reader; inhibition, % (no concentration beside the values); actives 0.35% (n = 340,000); AID 488862;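 active = every replicate at 50% or more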;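 note: 0 = median of the neutral control wells; tested in H4 reporter cells; numbers are from one replicate; inactives centre near -14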
# Mtb hypoxia rep growth – second read-out of Mtb hypoxia rep, no call of its own (marks repeat the call); growth inhibition, %; measured here: M. tuberculosis growth (absorbance);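 0% = vehicle and 100% = reference antibiotic; read after six days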
# An asterisk follows results filed as active; ? = inconclusive; / = not tested or not shown. This is a random part of the collection. About 3.9% of those tested had a hit in this group.
# A first look:
SMILES,Autofluor counter,Sa ugtP lethal,BJeLR viability,Mtb hypoxia rep,Mtb hypoxia rep growth,Sa RN4220 lethal,PrP 5UTR inh
Cc1ccc(NC(=O)c2ccc(S(=O)(=O)N3CC(C)CC(C)C3)cc2)cc1S(=O)(=O)N1CCOCC1 (stereo unspecified),2971,-10,/,13,7,0.1,2
O=C(CCNC(=O)c1ccc([N+](=O)[O-])cc1)NCc1cccs1,3765,3,/,-7,12,0.6,-5
CCOC(=O)Cc1csc(NC(=O)Nc2cccc(OC)c2)n1,6103,-4,4,16,7,5.4,-29
NC(=O)Nc1ccc(Oc2c(F)c(F)c(F)c(F)c2F)cc1,2412,14,8,6,2,18,-2
O=c1[nH]c2cc3c(cc2cc1C(c1nnnn1CC1CCCO1)N1CCCC1)OCO3 (stereo unspecified),7833,8,0,5,3,2.6,-3

# This part in full (from the top)
SMILES,Autofluor counter,Sa ugtP lethal,BJeLR viability,Mtb hypoxia rep,Mtb hypoxia rep growth,Sa RN4220 lethal,PrP 5UTR inh
Cc1ccc(NC(=O)c2ccc(S(=O)(=O)N3CC(C)CC(C)C3)cc2)cc1S(=O)(=O)N1CCOCC1 (stereo unspecified),2971,-10,/,13,7,0.1,2
O=C(CCNC(=O)c1ccc([N+](=O)[O-])cc1)NCc1cccs1,3765,3,/,-7,12,0.6,-5
CCOC(=O)Cc1csc(NC(=O)Nc2cccc(OC)c2)n1,6103,-4,4,16,7,5.4,-29
NC(=O)Nc1ccc(Oc2c(F)c(F)c(F)c(F)c2F)cc1,2412,14,8,6,2,18,-2
O=c1[nH]c2cc3c(cc2cc1C(c1nnnn1CC1CCCO1)N1CCCC1)OCO3 (stereo unspecified),7833,8,0,5,3,2.6,-3
CCSc1nc2ccc(N3C(=O)C4C5C=CC(C5)C4C3=O)cc2s1 (stereo unspecified),2401,1,-6,0,2,0.9,-20
c1cc2c(cc1OCCNC1CCCC1)CCC2,/,11,1,0,7,5.8,/
CCn1cc(CN2CCC(C(=O)Nc3cccc(-c4cccc(OC)c4)c3)CC2)c(C)n1,5830,9,-8,4,8,0.7,-1
COc1ccccc1C(=O)NC(CCSC)C(=O)NNC(=O)c1ccc(F)cc1 (stereo unspecified),6107,12,-4,7,6,2.3,-14
CN(Cc1cccc(Cl)c1)C(=O)C1CCC(=O)N(C2CC2)C1 (stereo unspecified),5725,-4,4,-11,-8,-0.6,-4
O=C(NC(=S)Nc1ccc(N2CCOCC2)cc1)c1cccs1,3250,-2,5,20,14,9.9,-14
Cc1cc(S(=O)(=O)N2CCOCC2)ccc1OCC(=O)N1CCCCC1,3512,4,4,-7,-14,-1.6,-29
Cc1ccc(C=NNC(=O)CSc2nnc(-c3ccc(Cl)cc3)n2-c2ccccc2)o1,/,-5,/,0,6,2.9,/
CCCN(Cc1nc2cc(Cl)ccc2c(=O)[nH]1)C(=O)c1ccc(S(=O)(=O)N2CCCC2)cc1,5959,-7,/,1,5,4.0,-3
Cn1c(=O)c2ccccc2n(Cc2cccc(F)c2)c1=O,2927,0,4,3,2,-1.2,-13
O=C(CCCCn1c(=O)c2ccccc2n(CC(=O)Nc2ccccc2)c1=O)NCc1ccco1,5053,-5,0,/,/,4.7,-1
O=C(COc1ccc(F)cc1F)NNC(=O)Nc1cccc([N+](=O)[O-])c1,5447,-7,-14,-8,7,-5.5,-12
FC(F)(F)c1nnc2sc(-c3cccs3)nn12,6161,-1,-3,7,-1,0.3,-14
CCn1nc(NC(=O)c2ccncc2)c2cc3cc(C)ccc3nc21,4495,50,-2,/,/,30,-1
Cc1nc2cc(NS(=O)(=O)c3ccccc3F)ccc2s1,3255,1,23,18,8,4.1,-8
O=C(c1ccncc1)c1ccc(N2CCN(C3CC(=O)N(Cc4ccccc4)C3=O)CC2)cc1 (stereo unspecified),5171,39,12,/,/,-3.1,-5
Cc1ccc(-c2nc(CN(C)C3CCOC3)c(C)o2)s1 (stereo unspecified),4442,7,10,10,2,6.5,-22
CSc1ncccc1C(=O)OCC(=O)NC1CCCC1,3734,7,/,14,1,6.0,-11
Cc1ccc(NC(=O)CN(C)C(=O)c2cccc(-n3cccc3)c2)cc1,6261,13,/,1,-1,2.6,-19
O=C(CN1C(=O)NC2(CCCCCCC2)C1=O)NC(=O)NCc1ccco1,3385,-5,4,0,4,-1.5,-15

# In another format: six of the compounds above
compound	Autofluor counter	Sa ugtP lethal	BJeLR viability	Mtb hypoxia rep	Mtb hypoxia rep growth	Sa RN4220 lethal	PrP 5UTR inh
O=C(COc1ccc(F)cc1F)NNC(=O)Nc1cccc([N+](=O)[O-])c1	5447	-7	-14	-8	7	-5.5	-12
FC(F)(F)c1nnc2sc(-c3cccs3)nn12	6161	-1	-3	7	-1	0.3	-14
CCn1nc(NC(=O)c2ccncc2)c2cc3cc(C)ccc3nc21	4495	50	-2	/	/	30	-1
Cc1nc2cc(NS(=O)(=O)c3ccccc3F)ccc2s1	3255	1	23	18	8	4.1	-8
O=C(c1ccncc1)c1ccc(N2CCN(C3CC(=O)N(Cc4ccccc4)C3=O)CC2)cc1 (stereo unspecified)	5171	39	12	/	/	-3.1	-5
Cc1ccc(-c2nc(CN(C)C3CCOC3)c(C)o2)s1 (stereo unspecified)	4442	7	10	10	2	6.5	-22

# Remaining list, next part.
SMILES,Autofluor counter,Sa ugtP lethal,BJeLR viability,Mtb hypoxia rep,Mtb hypoxia rep growth,Sa RN4220 lethal,PrP 5UTR inh
O=C(CSc1ccc(F)cc1)Nc1cccc(S(=O)(=O)N2CCOCC2)c1,4722,9,/,9,7,7.2,-19
Cc1ccc(NC(=O)N2CCN(C/C=C/c3ccccc3)CC2)cc1,3010,10,1,-1,-1,6.9,-20
CCCC(=O)Nc1ccc(C(=O)Nc2cccc(OC)c2)cc1,2138,5,12,7,5,0.2,-9
Cc1nsc(N)c1C(=O)O,6060,3,6,16,4,5.5,-3
O=C(CSc1nc2sc3c(c2c(=O)[nH]1)CCCC3)NCCO,5797,3,11,7,15,3.9,-15
O=S(=O)(NCc1ccc(F)cc1)c1ccc(-n2cccn2)cc1,5652,10,-1,1,4,4.7,-9
COc1ccc(OCC(=O)N/N=C(\C)c2cc3ccccc3o2)cc1,2503,/,5,/,/,/,-26
O=C(COc1ccccc1)OCC(=O)c1ccc(S(=O)(=O)N2CCCCC2)cc1,3890,8,/,23,37,6.2,-17
CCOC(=O)COc1ccc(C(=O)c2ccccc2)c(O)c1,3381,3,-6,6,10,5.3,0
Cc1ccc(CN2CCNC(=O)C2CC(=O)N(C)CCc2ccccc2)cc1 (stereo unspecified),4327,6,3,9,17,8.3,0
O=C(NCCNc1nccc(C(F)(F)F)n1)c1cccs1,3346,10,-5,12,-2,4.2,-4
COC(CN1C(=O)C(O)=C(C(C)=O)C1c1ccccn1)OC (stereo unspecified),2716,7,5,/,/,4.9,-4
CCOC(=O)C(NC(C)=O)(NC(C)C)C(F)(F)F (stereo unspecified),3922,1,4,4,2,-1.5,-19
Cc1nc2n(c(=O)c1CCN1CCC(c3noc4cc(F)ccc34)CC1)CCCC2,5323,10,-4,3,0,5.1,-28
O=C(NNC(=O)c1ccncc1)NC1CCCCC1,3290,6,2,11,2,4.3,-15
O=C(Cc1ccccc1)NCC1COc2ccccc2O1 (stereo unspecified),7925,-2,-3,-5,8,-2.5,-67
O=C(C1CCN(S(=O)(=O)c2cccnc2)CC1)N1CCCCC1,10634,8,-1,9,9,3.0,-38
CCc1nnc(NC(=O)C(c2ccccc2)c2ccccc2)s1,3876,1,-8,6,-10,4.2,-13
Cc1cc(C)cc(N(CC(=O)NC(C)(C)C)C(=O)CCC(=O)Nc2nccs2)c1,4251,-3,-8,-6,2,3.3,0
CCn1c(Cc2ccc(OC)cc2)nnc1SCC(=O)Nc1ccc(N2CCOCC2)cc1,5241,5,-8,-4,3,2.0,-12
Cc1[nH]nc2c1C(c1ccco1)C(C#N)=C(N)O2 (stereo unspecified),1949,6,-10,6,8,7.2,3
CCc1ccccc1NC1=NCC(=O)N1Cc1ccc2c(c1)OCO2,4851,-1,-3,7,15,3.3,-16
CCN(CC(=O)NC(C)(C)C)C(=O)c1ccccc1SCC(=O)NC1CCCCCCC1,4508,5,4,0,-6,3.4,-4
CCOC(=O)C1CCN(CCCSc2ccccc2)CC1,4268,/,-16,/,/,/,-19
CCOc1ccc(NC(=O)C(=O)NN=Cc2cccnc2)cc1,/,-14,/,-2,1,2.0,/

# Continued.
SMILES,Autofluor counter,Sa ugtP lethal,BJeLR viability,Mtb hypoxia rep,Mtb hypoxia rep growth,Sa RN4220 lethal,PrP 5UTR inh
COc1ccccc1NC(=S)N(Cc1ccco1)Cc1cc2ccc(C)c(C)c2[nH]c1=O,7156,/,34,/,/,/,-10
Cc1noc(C)c1COc1ccccc1C(=O)NCCc1ccc(Cl)cc1,?,-3,-12,11,5,9.2,-8
CC1(C(=O)NC2CCCCCCC2)CCC(=O)N1Cc1ccco1 (stereo unspecified),7772,6,-2,3,-3,4.3,-21
COC(=O)CCc1ccc(OCC(O)CNC(C)C)cc1 (stereo unspecified),5331,-2,3,0,4,8.5,-10
NC1=NC2(CCCCC2)N(c2ccc(F)cc2F)C(N)=N1,2596,-1,6,-13,-2,-0.7,-13
Cn1nc(-c2ccc(Cl)cc2)c2cc(C(=O)NCC3CCCO3)sc21 (stereo unspecified),5813,4,5,/,/,2.4,-13
Cc1ccc(NC(=O)c2sc3nc(C)cc(C)c3c2N)cc1,3779,21,9,13,6,9.3,-75
Cc1ccc(S(=O)(=O)NC(=O)c2ccc(Br)o2)c(C)c1,3117,-2,4,4,4,4.1,-10
CCC(=O)N1CCN(c2ccc(NC(=S)NC(=O)c3ccc(OC)c([N+](=O)[O-])c3)cc2)CC1,4245,59,1,3,12,2.3,-15
COc1ccccc1OCc1csc(N)n1,4535,-4,0,-3,6,3.1,-9
Cc1cccc(NC(=O)c2ccc(OCc3c(C)noc3C)cc2)c1,3835,3,/,7,0,3.6,-7
N#Cc1c(C(F)(F)F)cc(C2CC2)nc1N1CCCC1,2091,3,1,/,/,2.4,-11
CCCc1cc(=O)[nH]c(SCC(=O)Nc2sc3c(c2C#N)CCC(C)C3)n1 (stereo unspecified),3346,-65,-4,12,6,-8.8,-7
CCNC(=S)N/N=C1\CCCCc2ccccc21,2401,/,1,/,/,/,-7
Cc1ccccc1CSc1nnc(-c2ccncc2)o1,4436,-4,-1,18,17,11,-40
CN1CCN(NC(=O)CSc2ccc(Cl)cc2Cl)CC1,2847,0,0,2,-4,0.4,-28
O=S(=O)(NC1CCCCC1N1CCN(c2ccc(F)cc2)CC1)c1ccccc1 (stereo unspecified),5918,10,9,0,5,1.9,-15
CCOC(=O)c1cc(CC)sc1/N=C/C1=C(O)CC(C)(C)CC1=O,9889,/,-3,/,/,/,-37
COCCN(C(=O)c1cc(-c2ccc(F)cc2)nc2ccccc12)c1c(N)n(CC(C)C)c(=O)[nH]c1=O,3207,9,/,-7,-3,3.4,-6
O=C(NC(=S)NNC(=O)[C@H]1C[C@@H]1c1ccccc1)c1ccc(F)cc1,?,16,-7,4,-1,47,1
Cc1ccc(/C=N/NC(=O)c2cccc(NC(=O)c3ccccc3Cl)c2)o1,3991,/,-8,/,/,/,-17
CCc1cc(=O)oc2cc(C)cc(OC(C)C(=O)NCc3ccncc3)c12 (stereo unspecified),5812,9,9,6,-1,0.7,-12
CCCN1CCC(NC(=O)Nc2ccccc2C(=O)OC)CC1,9795,9,-6,2,4,5.1,-19
Cc1ccc(NC(=O)C2(C)Cc3ccccc3C(=O)O2)cc1 (stereo unspecified),2063,6,5,9,4,3.6,-7
Cc1ccc(C)c(Cn2c3ccccc3c3cnn(CC(=O)NCc4ccccn4)c(=O)c32)c1,5304,-4,-19,-4,-6,-3.8,-12
Nc1ccc(-c2nc3ccccc3o2)cc1,3084,-14,4,-10,3,0.6,-39
Cc1cccc(C)c1NC(=O)CNC(=O)c1ccncc1,/,-6,-4,2,2,2.2,-20
Cc1cc(C)c(C(=O)OCc2csc(CC(=O)Nc3ccccc3C)n2)c(C)c1,5803,1,3,5,-4,-1.9,-20
